Compound activity from PubChem.
CBX7 AlphaScr = CBX7 inhibition, primary AlphaScreen; AID 1224903; normalised signal (fraction of DMSO) (test concentration not listed); AlphaScreen His6-CBX7 / biotin-H3K27me3 peptide binding; active compounds read low; 66,000 compounds, 1.1% hits; O95931; in the data active = normalised signal below about 0.5;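 note: 100 nL library stock added to about 20 µL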
Target sequence (O95931 whole entry, looked up): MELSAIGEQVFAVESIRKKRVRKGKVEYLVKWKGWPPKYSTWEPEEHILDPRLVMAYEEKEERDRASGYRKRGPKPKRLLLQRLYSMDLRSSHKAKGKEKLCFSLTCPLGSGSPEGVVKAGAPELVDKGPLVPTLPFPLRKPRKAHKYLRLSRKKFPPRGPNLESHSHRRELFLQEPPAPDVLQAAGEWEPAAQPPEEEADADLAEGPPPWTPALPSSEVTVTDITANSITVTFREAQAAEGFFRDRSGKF
CBX7 AlphaScr z-score = second read-out of CBX7 AlphaScr, no call of its own (marks repeat the call); z-score; measured here: z-score of CBX7 signal; some inactives read as strong as hits; reference of the scale not given here;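 same signal on another scale; lower means less binding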
The depositor's hits bear a star; & = joins results of further samples. A portion of the library; rates above refer to the full screens.

SMILES	CBX7 AlphaScr	CBX7 AlphaScr z-score
CCCCNC(=O)c1cc(=O)[nH]c2ccc(S(=O)(=O)N3CCCC(C)C3)cc12 (stereo not given)	0.94	-0.85
CCCCn1cc(C2CC(=O)N(c3ccc(Br)cc3)C2=O)c2ccccc21 (stereo not given)	1.2	4.8
O=C(NC1CCN(Cc2ccccc2)CC1)[C@H](Cc1ccccc1)N1Cc2ccccc2C1=O	0.95	-1.5
Cc1ccc(N2CC(C(=O)NCC(C)O)CC2=O)cc1 (stereo not given)	1	0.084
CC(NC(=O)c1ccccc1F)C(c1cccs1)N1CCN(c2ccc(F)cc2)CC1 (stereo not given)	0.9	-3.4
CCCC1=Nc2cc(C(=O)NCCCOCC)ccc2Sc2ccccc21	0.92	-1.1
O=C(COc1ccc(Cl)cc1)NCc1nnc(SCC(=O)NCCc2ccccc2)o1	1.1	2.6
COC(=O)c1ccc(C(=O)NCCc2c(C)[nH]c3ccc(OCc4ccccc4)cc23)cc1	0.82	-4.2
Cc1ccc(-n2cnc3cc(C(=O)NCc4ccc(F)cc4)ccc32)cc1Cl	1	0.35
Cc1ccnc(N2C(=O)c3ccccc3C2Nc2cccc(C(F)(F)F)c2)c1 (stereo not given)	1.1	2
COc1ccc(-c2nnc(SCC(=O)Nc3nccs3)o2)cc1	0.99	-0.014
O=C(Nc1ccc(F)cc1F)c1cc(C2CC2)on1	1	0.74
Cc1cc(NC(=O)c2ccccc2Oc2ccccc2)no1	1	0.51
COc1ccc(C(=O)Nc2ccc3oc(-c4cccnc4)nc3c2)cc1	0.98	-0.03
CNc1oc(C)nc1S(=O)(=O)c1ccc(C)cc1	0.98	-0.79
COCCN1Cc2cccc(C(=O)NCc3ccc4c(c3)OCO4)c2C1=O	1	0.011
CCN(CCNC(=O)c1cc(Nc2ccccc2OC)nc2ccccc12)c1ccccc1	1.2	0.17
CCOc1ccc2nc(N3CCC(C(=O)N4CCN(c5ccc(OC)cc5)CC4)CC3)sc2c1	0.78	-6.1
CCCc1c2c(nn1-c1cc(Cl)ccc1OC)CC(C)(C)CC2=O	1	0.59
Cc1cc(N(C)Cc2ccccc2)n2nc(C)c(-c3ccc(Cl)cc3)c2n1	2	9.8
O=C(Nc1cccc2c(-c3ccccc3)ccnc12)C1CC1	1.1	0.45
CCCNC(=O)c1ccc(CNc2c(N3CCC(C(=O)OCC)CC3)c(=O)c2=O)cc1	1	1
COc1ccccc1NC(=O)CCCOc1cc(=O)n(C)c2ccccc12	0.79	-3.4
COc1cc2c(cc1OC)C1C(C(=O)NCCc3ccc(Cl)cc3)c3ccccc3C(=O)N1CC2 (stereo not given)	1	0.11
COc1ccc(C(=O)Nc2nc(-c3ccccc3)c(C(=O)c3ccccc3)s2)c(OC)c1	0.93	-1.1
COc1ccc(-c2nc(C(=O)NC3CC3)c(C)o2)cc1	0.99	-0.36
COc1ccc2[nH]c(C)c(CCNC(=O)c3cccs3)c2c1	0.77	-4
Cn1ccnc1SCC(=O)Nc1ccccc1Oc1ccccc1	0.88	-0.47
CCn1c(SCC(=O)c2ccccc2)nnc1-c1c[nH]c2ccccc12	1	0.052
COc1cccc(-c2nc(CS(=O)(=O)CC(=O)NCc3ccccc3)c(C)o2)c1	1	0.51
COc1ccc(C2CC(=O)c3c(ccc4ccccc34)N2)cc1 (stereo not given)	0.95	-1.5
c1ccc(CC2CCN(c3nc(-c4ccncc4)nc4ccccc34)CC2)cc1	1.1	0.61
COc1ccccc1Nc1ncc(C(=O)NCCCN2CCCCCC2)c2ccccc12	1.3	2.1
CCOc1ccc(C2CC(=O)NC3=C2C(=O)CCC3)cc1 (stereo not given)	1.1	2
Cc1ccc(Cc2cnc(NC(=O)COc3ccccc3)s2)cc1	0.99	-0.11
Cc1nc(Nc2ccc(Oc3ccccc3)cc2)c2c(C)c(C)sc2n1	1.1	2.6
CCCOc1ccc(C(=O)Nc2nc3ccccc3s2)cc1	1.1	0.053
Cc1onc(-c2c(F)cccc2Cl)c1C(=O)NCC1COc2ccccc2O1 (stereo not given)	0.47*	-0.59*
O=C(Cn1ncc2c1-c1ccccc1OC2)NCCc1c[nH]c2ccccc12	0.66	-2
COc1ccc(-c2[nH]c(-c3ccccc3)nc2SCC(=O)Nc2ccc(OC)c(OC)c2)cc1	0.84	-7.5
COc1cccc(-c2nc(CS(=O)(=O)CC(=O)Nc3cc(Cl)ccc3Cl)c(C)o2)c1	0.99	-0.13
Cc1ccccc1CN1CCN(Cc2ccccc2C(F)(F)F)CC1	1.2	3.9
Cc1ccc(CNC(=O)CN(c2ccc(C(C)C)cc2)S(=O)(=O)c2c(C)nn(C)c2C)cc1	1	0.55
CC1CC(C)CN(CCCNC(=O)Cc2c(C(=O)O)[nH]c3ccccc23)C1 (stereo not given)	0.97	-0.58
O=C(Cc1ccc(-n2c(=O)[nH]c3ccsc3c2=O)cc1)NCCc1c[nH]c2ccccc12	1	0.16
Cc1cc(N2CCN(c3ncccn3)CC2)nc2ccc(NC(=O)Cc3cccs3)cc12	1.2	1
Cc1ccc(-c2nc(C(=O)NC3CCCc4ccccc43)c(C)o2)cc1 (stereo not given)	0.93	-0.58
CC(=O)Nc1ccccc1-c1nc2ccc(C(=O)NCCN(C)C3CCCCC3)cc2[nH]c1=O	1	0.38
CCOC(=O)Cc1csc(NC(=O)CCCOc2cccc(C)c2)n1	1.1	1.2
COc1ccc(CN2CCC(N3CCc4ccccc4C3)CC2)cc1OCc1ccccc1	0.94	-1.9
The listing continues:
SMILES	CBX7 AlphaScr	CBX7 AlphaScr z-score
Cc1ccc(CCNS(=O)(=O)c2cnc[nH]2)cc1	1	0.037
Cc1ccc(S(=O)(=O)c2nc(-c3ccccc3)oc2SC(C)C)cc1	1.1	3.3
COc1cccc(CNC(=O)c2cc(-c3ccc(F)cc3)on2)c1OC	1	0.31
Cc1ccc(C(=O)Nc2cccc(-c3nc4ccccc4o3)c2)cc1Cl	1.1	1.1
O=C(Nc1ccc2oc(-c3ccccc3Cl)nc2c1)c1ccc(F)cc1	1	0.51
CC(C)COc1ccc(C(=O)Nc2ccc3oc(-c4cccc(Cl)c4)nc3c2)cc1	0.99	-0.29
Cc1ccc(NC(=O)CCc2nc(-c3ccccc3F)no2)cc1F	1.1	1.7
Cc1cccc(C(=O)N2c3ccccc3N(Cc3ccc(Cl)c(Cl)c3)C(=O)C2(C)C)c1	1.1	0.36
Fc1cc(Cl)ccc1CSc1nc2ncc(Br)cc2[nH]1	1	0.98
CC(=O)N1CCc2cc(S(=O)(=O)NC(CC(C)C)C(=O)Nc3ccc(C)cc3C)ccc21 (stereo not given)	0.91	-2
CCn1c(C(=O)N2CCC(C(=O)NCCCc3ccccc3)CC2)cc2sccc21	0.72	-1.2
Cc1cc(C(F)(F)F)n2ncc(-c3ccc(Cl)cc3)c2n1	0.9	-1.9
O=C(Nc1ccc(-c2nc3ccccc3o2)cc1)c1cccc(F)c1	0.93	-0.79
CCN(C(=O)CCc1nc(-c2ccc(C)cc2)no1)c1ccc(C)c(C)c1	1	0.055
CCOC(=O)C1CCN(c2c(NCCCN3CCC(C)CC3)c(=O)c2=O)CC1	1.1	2
O=C(Cn1nc(Cc2cccnc2)c2ccccc2c1=O)NCCN1CCOCC1	0.95	-1.2
O=C(NC1CCCCCCC1)c1ccc2c(c1)ncn2C1CCCC1	0.91	-0.98
Cc1ccc(Nc2ncc(C(=O)N3CCN(Cc4ccccc4)CC3)c3ccccc23)cc1Cl	1.1	4.8
Cc1cccc(C)c1Nc1c(-c2ccsc2)nc2ncccn12	1.1	1.9
Cc1cccc(OCc2nc(C#N)c(NC(C)c3ccccc3)o2)c1 (stereo not given)	0.6	-5
CCOC(=O)c1cc2c(n(-c3ccc(Cl)cc3)c1=O)CC(C)(C)CC2=O	1	0.58
Cc1ccc(C(=O)Nc2nccs2)cc1S(=O)(=O)N1CCOCC1	0.87	-1.4
Cc1ccc2nc(-c3c[nH]c4ccccc34)c(NC3CCCCC3)n2c1	0.92	-2.2
O=C1CC(c2ccc(-c3ccccc3)cc2)C2=C(CCCC2=O)N1 (stereo not given)	1.1	0.5
COc1ccccc1Nc1nc(-c2cc(C)ccc2C)cs1	1.1&0.75	1.4&-4.4
Cc1oc(-c2ccccc2Cl)nc1CS(=O)(=O)CC(=O)NCCCc1ccccc1	0.98	-0.5
COc1ccccc1C(=O)Nc1ccc(S(=O)(=O)Nc2nccc(C)n2)cc1	1.1	1.2
Cc1ccc(C)c(N2CCN(S(=O)(=O)c3ccc4[nH]c(=O)c(=O)[nH]c4c3)CC2)c1	0.8	-0.27
COc1cc(OC)cc(-c2nnc(NC(=O)c3ccc(S(=O)(=O)N4CCCCC4C)cc3)o2)c1 (stereo not given)	1.1	0.69
O=C(Nc1ccc(O)c(-c2nc3ccccc3s2)c1)c1ccc(C(=O)c2ccccc2)cc1	0.91	-1.5

Another view of part of the listing above.
Below each SMILES – CBX7 AlphaScr | CBX7 AlphaScr z-score
- CCOC(=O)C1CCN(c2c(NCCCN3CCC(C)CC3)c(=O)c2=O)CC1
 : 1.1 | 2
- O=C(Cn1nc(Cc2cccnc2)c2ccccc2c1=O)NCCN1CCOCC1
 : 0.95 | -1.2
- O=C(NC1CCCCCCC1)c1ccc2c(c1)ncn2C1CCCC1
 : 0.91 | -0.98
- Cc1ccc(Nc2ncc(C(=O)N3CCN(Cc4ccccc4)CC3)c3ccccc23)cc1Cl
 : 1.1 | 4.8
- Cc1cccc(C)c1Nc1c(-c2ccsc2)nc2ncccn12
 : 1.1 | 1.9
- Cc1cccc(OCc2nc(C#N)c(NC(C)c3ccccc3)o2)c1 (stereo not given)
 : 0.6 | -5
- CCOC(=O)c1cc2c(n(-c3ccc(Cl)cc3)c1=O)CC(C)(C)CC2=O
 : 1 | 0.58
- Cc1ccc(C(=O)Nc2nccs2)cc1S(=O)(=O)N1CCOCC1
 : 0.87 | -1.4
- Cc1ccc2nc(-c3c[nH]c4ccccc34)c(NC3CCCCC3)n2c1
 : 0.92 | -2.2
- O=C1CC(c2ccc(-c3ccccc3)cc2)C2=C(CCCC2=O)N1 (stereo not given)
 : 1.1 | 0.5
- COc1ccccc1Nc1nc(-c2cc(C)ccc2C)cs1
 : 1.1&0.75 | 1.4&-4.4
- Cc1oc(-c2ccccc2Cl)nc1CS(=O)(=O)CC(=O)NCCCc1ccccc1
 : 0.98 | -0.5
- COc1ccccc1C(=O)Nc1ccc(S(=O)(=O)Nc2nccc(C)n2)cc1
 : 1.1 | 1.2
- Cc1ccc(C)c(N2CCN(S(=O)(=O)c3ccc4[nH]c(=O)c(=O)[nH]c4c3)CC2)c1
 : 0.8 | -0.27

Further entries.
SMILES	CBX7 AlphaScr	CBX7 AlphaScr z-score
COc1ccc(C(O)c2cnc(C(C)C)n2C)cc1 (stereo not given)	0.96	-1.4
COc1ccc2c(c1)CCc1c(C(=O)Nc3ccn(Cc4ccc(C)cc4)n3)noc1-2	1	1
COc1ccc(-c2csc(NC(=O)Cn3nc(C)cc3C)n2)cc1	0.92	-1.6
COc1ccc(CCNC(=O)C(=O)NCc2ccc(C)cc2)cc1OC	1.1	1.5
COCCNC(=O)c1cc(-c2ccc(OC)cc2)on1	1.2	0.78
COc1ccc(CNC(=O)C2CCCN(c3nn4c(=O)cc(C)nc4s3)C2)cc1 (stereo not given)	1.1	1.1
COC(=O)c1ccc(N2C(=O)CC(N(C)CCc3ccc(OC)c(OC)c3)C2=O)cc1 (stereo not given)	1.1	0.74
COc1ccc(C(=O)NCc2nnc(SCC(=O)NCCc3ccc(OC)c(OC)c3)o2)cc1	1.2	2.4
CN(C)CCNC(=O)c1ccc2c(c1)N(Cc1c(F)cccc1Cl)C(=O)c1ccccc1S2	1.4	1.7
COc1ccc(-c2nc(SCC(=O)Nc3ccc(OC)c(OC)c3)c(-c3ccccc3)[nH]2)cc1	0.77	-11
Cc1ccc(-c2csc(NC(=O)c3ccccc3Br)n2)cc1	1	2
O=C(O)c1ccc(-n2c(/C=C\c3cccc(Br)c3)nc3ccccc3c2=O)cc1	1	1.1
CCOc1ccc(CCNC(=O)c2cc3c(s2)CS(=O)(=O)C3)cc1OCC	0.96	-1.1
Cc1cccc(-c2cc(C(=O)Nc3ccc(F)cc3)c3ccccc3n2)c1	0.97	-0.63
Cc1cc(N2CCOCC2)nc2ccc(NC(=O)CCC(=O)NCc3ccc(F)cc3)cc12	1	0.024
Clc1ccc(-c2csc(N3CCc4ccccc43)n2)c(Cl)c1	1.3&1.3	11&0.36
CCOC(=O)c1ccc(N2C(=O)C(Oc3ccc(Cl)cc3C)C2c2ccccc2OC)cc1 (stereo not given)	1.1	3.2
COc1ccc(NCc2ccccc2NS(=O)(=O)c2ccc(C)cc2)cc1	0.71	-0.65
COc1ccc(NC(=O)[C@H](CCSC)N2Cc3ccccc3C2=O)cc1OC	0.77	-0.65
COc1cccc(C(=O)N2CCN(C(=O)c3ccc(F)cc3)c3ccccc3C2)c1	1.1	1.7
CCOC(=O)C1CCCN(c2c(NCCCN3CCCC3)c(=O)c2=O)C1 (stereo not given)	0.97	-0.78
COc1ccc(C2C(=O)N(C3CCC(C)CC3)CC(=O)N2C2CCCCC2)cc1OC (stereo not given)	0.98	-0.027
COc1ccc(Cl)cc1NC(=O)c1c(NCc2ccc(OC)c(OC)c2OC)sc2c1CCCC2	0.9	-5
COc1ccccc1-c1cc(C(F)(F)F)nc(N2CCCCCC2)n1	1.2	11
O=C(NCCCN1CCN(Cc2ccccc2)CC1)c1cnn(-c2ccccc2)c1-n1cccc1	0.98	-0.8
O=C(CN1C(=O)CSc2ncccc21)Nc1ccc(Cl)cc1	1	0.075
COc1ccc(-c2nc3ccc(C)cn3c2Nc2ccc(C)cc2)cc1	0.98	-0.23
O=C(NC1CCCC1)c1ccc2c(c1)N(Cc1ccccc1)C(=O)c1ccccc1S2(=O)=O	1	0.11
Cc1c(C(=O)NCc2cccnc2)oc2ccc(S(=O)(=O)N3CC(C)CC(C)C3)cc12 (stereo not given)	1.1	0.29
CC1(C)OC2OC(C(=O)Nc3ccc(OC(F)(F)F)cc3)C3OC(C)(C)OC3C2O1 (stereo not given)	1	0.68
Cc1ccc(OCC(=O)Nc2ncc(Cc3cccc(Cl)c3)s2)cc1	1	0.37
Cc1cccc(-c2noc(CN(C(=O)c3cc(C)ccc3C)C(C)C)n2)c1	0.95	-1
CC(C(=O)NC1CCCCC1)N1C(=O)CC(C)(C)Sc2ccccc21 (stereo not given)	1	0.57
